VACV mCherry inh: vaccinia inhibition (mCherry reporter). Vaccinia virus mCherry reporter infection, fluorescence; about a quarter of the inactives have no number. Potency, µM (doses to about 36.5 µM), inactives show at the highest dose activity change, negative = inhibition, hits mostly inhibitors. 310,000 compounds, 0.63% hits; active = well fitted inhibition curve with a large enough effect; inconclusive = small, poorly fitted or top-dose-only effect; inactive = no such curve, though single readings can be large or run the other way; tested in A549 cells; note: nearly all actives have a fitted effect of over 35% in size; inactives centre near -10
VACV Venus inh: inhibitors of vaccinia virus (Venus reporter) | 330,000 compounds, 0.46% hits | AID 720580 | Potency, µM (titrated, usually from 36.5 µM), inactives show top-dose activity change, negative = inhibition, usual class: inhibitors | Vaccinia virus Venus reporter expression, fluorescence; active means well fitted inhibition curve with a large enough effect; inconclusive means small, poorly fitted or top-dose-only effect; inactive means no such curve, though single readings can be large or run the other way; tested in A549 cells; note: nearly all actives have a fitted effect of over 30% in size; inactives centre near -10
Starred values were filed as active, the others as inactive; i = inactive; ? = inconclusive; nt = not tested or not shown; [ ] = another dose, or the depositor's remark. % is set by controls: 0 for no effect and ±100 for the full control effect; potency is the fitted concentration of half-maximal effect.

SMILES	VACV mCherry inh	VACV Venus inh
CNC[C@@H]1OCc2ccccc2-c2ccccc2C(=O)N([C@@H](C)CO)C[C@@H]1C	-2%	-12%
C=Cc1cccc(NC(=O)COc2ccccc2)c1	nt	-5%
CCOc1cc(CNCc2ccccn2)ccc1OCC(=O)NC(C)(C)C	-14%	-15%
CC(c1ccco1)N(Cc1ccco1)C(=O)Nc1ccccc1 (configuration not stated)	-4%	1%
CCOCCc1nn2c(=O)cc(COC(=O)c3cccs3)nc2s1	-12%	-13%
Nc1nc(SCC(=O)Nc2ccc(OC(F)(F)F)cc2)[nH]c(=O)c1NC(=O)c1ccc(Br)o1	-10%	-16%
O=C(Nc1ccccc1F)C(c1ccccc1)N1Cc2ccccc2C1=O (configuration not stated)	i	-2%
CC(C)NC(=O)N(C)C[C@H]1OCCCC[C@H](C)Oc2ccc(NC(=O)NC3CCCCC3)cc2C(=O)N([C@H](C)CO)C[C@@H]1C	-12%	-16%
Cc1c(C(=O)NCC2CCCN(C)C2)cnn1-c1nccc(-c2ccco2)n1 (configuration not stated)	-13%	-6%
COc1ccc(-c2cc3nc(C)cc(N4CC(C)CC(C)C4)n3n2)cc1 (configuration not stated)	nt	-9%
COc1ccc(OCC(=O)N2CCN(Cc3cc(=O)n4nc(-c5ccccc5C)sc4n3)CC2)cc1	-16%	-23%
CS(=O)(=O)c1cc(C(=O)O)cc(NCc2ccccc2)c1Oc1ccccc1	-25%	-14%
C/C(CC(=O)Nc1cccc(Cl)c1C)=N\NC(=O)C(=O)NCC(C)C	-17%	-18%
CSc1nnc(C)c(=O)n1COC(=O)COc1ccc2ccccc2c1	-17%	-9%
COc1ccccc1CNC(=O)CCS(=O)(=O)c1ccc2c(c1)CCCN2C(C)=O	-3%	-19%
C=CCOC(=O)Nc1nc(CCNC(=O)OCc2ccccc2)c(C(=O)OC)s1	-7%	-15%
CCSc1nsc(NC(=O)Nc2ccccc2F)n1	-20%	-29%
Cc1oc2ncnc(N3CCCCC3)c2c1C(=O)NCC1CCN(Cc2cccc(F)c2)CC1	-10%	-1%
COc1nc(OCCNC(=O)Nc2ccccc2)nc(N(C)C)n1	-5%[1.46 µM]	-10%
CC(=O)N1CCN(C(=O)CNC(=O)c2ccc(C)s2)CC1	i	-14%
Cn1cc(/C=N/NC(=O)c2cc3cc(Br)ccc3o2)c2ccccc21	-9%	-20%
COc1cc(/C=N/NC(=O)c2ccccn2)ccc1OC(=O)c1cccs1	-5%	-21%
CC1CCc2c(sc3[nH]c(=S)n(C)c(=O)c23)C1 (configuration not stated)	i	-10%
CN1CCN(CCOc2ccc(Cl)c(Cl)c2)CC1	i	-11%
COc1ccc(OC(C)C(=O)Nc2ccc([N+](=O)[O-])cc2)cc1 (configuration not stated)	-11%	-8%
Cc1nc2ccc(S(=O)(=O)NC(CC(C)C)C(=O)O)cc2s1 (configuration not stated)	nt	-7%
CC(OC(=O)c1ccc(O)cc1)C(=O)Nc1ccc(Oc2ccccc2)cc1 (configuration not stated)	-4%	-17%
O=c1c2ccccc2cnn1Cc1n[nH]c(=S)n1-c1ccccc1Cl	-15%	-12%
O=C(Cn1nnc(-c2ccccc2)n1)NCc1ccco1	nt	-9%
COc1ccc(-c2noc(CCCC(=O)Nc3cccc(Cl)c3C)n2)cc1	-7%	-12%
CCOC(=O)C=Nc1c(N)n(C)c(=O)n(C)c1=O	i	-18%
Cc1cccc(C)c1NC(=O)C(c1ccccc1)n1c(-c2ccccc2)nc2ccccc21 (configuration not stated)	-25%	-23%
O=C1CCCc2c1ccc1ccccc21	i	-5%
COCCn1c(SCC(=O)Nc2cc(Cl)ccc2OC)nc2c([nH]c3ccccc32)c1=O	-13%	-14%
CC(=O)N1CCN(c2ccc(NC(=O)c3ccco3)cc2)CC1	8%	1%
CCOc1ccc(C(=O)N[C@H](C(=O)NNC(=O)c2cccs2)C(C)C)cc1	i	-9%
O=C(CCl)N1CCCC1c1ccc2c(c1)OCCO2 (configuration not stated)	-5%	-10%
CC1CCCN(CC(=O)Nc2ccc(S(=O)(=O)N3CCCC3)cc2)C1 (configuration not stated)	-1%	-4%
Cc1ccc(S(=O)(=O)N(C)c2c(C)ccc(S(=O)(=O)Nc3ccncc3)c2C)cc1	-30%	-24%
Cc1ccccc1NC(=S)NC(=O)COc1ccccc1C	-2%	-6%
Cc1ccc(Cn2nnc3c(=O)[nH]c(C4CCCN(S(=O)(=O)c5ccccc5F)C4)nc32)cc1 (configuration not stated)	-13%	-11%
O=C(NC1CCCCCC1)c1ccc[nH]c1=S	i	-13%
CC(=O)Nc1ccc(S(=O)(=O)NC2(C(F)(F)F)C(=O)Nc3c2c(=O)[nH]c(=O)n3Cc2cccnc2)cc1 (configuration not stated)	-4%	2%
COc1cc(=O)n2c(c1C(=O)NCc1cccc(F)c1)CCN(Cc1cccnc1)CC2	i	-3%
COc1ccc(S(=O)(=O)N2CCC(C(=O)NC3CCCC3)CC2)cc1OC	i	-10%
O=C(CSCc1ccc([N+](=O)[O-])cc1)Nc1cccc(C(=O)Nc2ccccc2C(=O)O)c1	-3%	-3%
Cc1cc(C)n(CCCNC(=O)c2cc(COc3ccc(C)c(C)c3)on2)n1	-13%	-6%
Cc1ccc(-c2csc(NCCn3c(C(F)(F)F)nc4ccccc43)n2)cc1	-13%	-25%
COc1cccc(NC(=O)N2CCN(c3cccc(C)c3)C(C)C2)c1 (configuration not stated)	i	-11%
CCOC(=O)C(C)n1nc(/C=C/c2ccccc2)ccc1=O (configuration not stated)	nt	-20%
COc1ccc(N2CCN(Cc3nc4c(c(=O)[nH]c(=O)n4C)n3Cc3cccc(Cl)c3)CC2)cc1	7%	-15%
O=C(NCc1ccccc1Cl)c1cccc(NC(=O)c2ccccc2)c1	2%	-24%
Nc1cc(Cl)ccc1C(=O)OCC(=O)N1CCOCC1	-7%	-7%
CCCNC(=O)C1CN(S(=O)(=O)c2ccc(Cl)s2)c2ccccc2O1 (configuration not stated)	-16%	-8%
COc1ccc(F)cc1S(=O)(=O)Nc1ccc2c(c1)OCO2	i	-12%
Cc1ccc(N2C(S)=C(C#N)C(=O)NC2c2cccs2)cc1 (configuration not stated)	-21%	-9%
CCC(C(=O)Nc1cc(Cl)ccc1OC)c1ccccc1 (configuration not stated)	-21%	-13%
Cc1ccc(S(=O)(=O)N(C)C)cc1NC(=S)NCc1ccco1	i	-6%
COc1cc(/C=C2\COC/C(=C\c3cc(OC)c(OC)c(OC)c3)C2=O)cc(OC)c1OC	?	?
O=C(CSc1c[nH]c2ccccc12)N1CCCc2ccccc21	-27%	-21%

The listing continues:
SMILES	VACV mCherry inh	VACV Venus inh
CSc1nnc(C)c(/C=C/Nc2ccc(C)cc2)n1	nt	-20%
CCN(CC(=O)NC)S(=O)(=O)c1ccc(Br)cc1	nt	-3%
COc1cc(CC(=O)Nc2ccc(S(=O)(=O)N(C)C)cc2)cc(OC)c1OC	-13%	-13%
CCCC(C)n1[nH]c(=O)c2c(C)cc(C)nc21 (configuration not stated)	nt	-16%
Cc1csc2nc(COc3cccc(NC(=O)c4ccccc4F)c3)cc(=O)n12	-22%	-13%
CC(OC(=O)CC1Sc2ccccc2NC1=O)C(=O)NC1CCCC1 (configuration not stated)	-15%	-9%
O=C(Cn1ncc2c(=O)oc3ccccc3c21)N1CCN(C(=O)c2ccco2)CC1	-23%	-20%
CCC/C(O)=C1\C(=O)CCCC1=NCCc1ccc(OCC)c(OCC)c1	-14%	-9%
COC(=O)CCC(=O)OC1(C)C(=O)C2=CN(c3ccccc3)C(c3ccc(OC)cc3)=CC2=C(Br)C1=O (configuration not stated)	-8%	-1%
COc1ccc(/C=C(\C#N)C(=O)Nc2cccnc2)cc1	-13%	-8%
Cc1cc(C)cc(-n2ccn(CC(=O)Nc3ccccc3F)c(=O)c2=O)c1	-9%	-16%
Cc1cc(=O)n2nc(N3CCCC(C(=O)NC4CCC(C)CC4)C3)sc2n1 (configuration not stated)	i	-6%
Clc1ccc2noc(-c3ccccc3)c2c1	-6%	0%
O=C(CCNC(=O)c1ccccc1Cl)Nc1cc(C(F)(F)F)ccc1N1CCCC1	i	-9%
Cc1ccccc1-c1cnc(C(O)c2c(C)cccc2C)[nH]1 (configuration not stated)	-1%	-27%

An excerpt from above in order of length of the SMILES, ascending.
SMILES	VACV mCherry inh	VACV Venus inh
CCSc1nsc(NC(=O)Nc2ccccc2F)n1	-20%	-29%
CCOC(=O)C=Nc1c(N)n(C)c(=O)n(C)c1=O	i	-18%
COc1ccc(/C=C(\C#N)C(=O)Nc2cccnc2)cc1	-13%	-8%
O=C(CSc1c[nH]c2ccccc12)N1CCCc2ccccc21	-27%	-21%
COc1ccc(F)cc1S(=O)(=O)Nc1ccc2c(c1)OCO2	i	-12%
CSc1nnc(C)c(=O)n1COC(=O)COc1ccc2ccccc2c1	-17%	-9%
Cc1nc2ccc(S(=O)(=O)NC(CC(C)C)C(=O)O)cc2s1 (configuration not stated)	nt	-7%
COc1cc(/C=N/NC(=O)c2ccccn2)ccc1OC(=O)c1cccs1	-5%	-21%
COc1ccc(-c2cc3nc(C)cc(N4CC(C)CC(C)C4)n3n2)cc1 (configuration not stated)	nt	-9%
Cc1c(C(=O)NCC2CCCN(C)C2)cnn1-c1nccc(-c2ccco2)n1 (configuration not stated)	-13%	-6%
CCOc1ccc(C(=O)N[C@H](C(=O)NNC(=O)c2cccs2)C(C)C)cc1	i	-9%
Cc1cccc(C)c1NC(=O)C(c1ccccc1)n1c(-c2ccccc2)nc2ccccc21 (configuration not stated)	-25%	-23%
COc1cc(/C=C2\COC/C(=C\c3cc(OC)c(OC)c(OC)c3)C2=O)cc(OC)c1OC	?	?
CC(=O)Nc1ccc(S(=O)(=O)NC2(C(F)(F)F)C(=O)Nc3c2c(=O)[nH]c(=O)n3Cc2cccnc2)cc1 (configuration not stated)	-4%	2%
CC(C)NC(=O)N(C)C[C@H]1OCCCC[C@H](C)Oc2ccc(NC(=O)NC3CCCCC3)cc2C(=O)N([C@H](C)CO)C[C@@H]1C	-12%	-16%

Following part.
SMILES	VACV mCherry inh	VACV Venus inh
O=C1NC(Nc2nccs2)(C(F)(F)F)C(=O)N1CCc1ccccc1 (configuration not stated)	nt	-5%
COc1ccc(C2(CNC(=O)c3ccc(C)cc3)CCOCC2)cc1	7%	5%
Cc1cc(N2CCCC2)ccc1/C=C1/C(=O)N(C)C(=S)N1C	-7%	-3%
Cc1cccc2cc(CN(CCCO)C(=O)Nc3ccccc3Cl)c(=O)[nH]c12	nt	-17%
CCOc1ccc(S(=O)(=O)N2CCN(C(=O)C3CCC3)CC2)cc1	i	-15%
CN(C)C(=O)c1snnc1-c1ccccc1	nt	-4%
CC(C)COC(=O)c1cccc2c1-c1ccccc1/C2=N\O	?	?
COc1ccc(-n2c(C)nc3cc(C(=O)N4CCOCC4)ccc32)cc1	i	-14%
c1cc2c(cc1[C@H]1OC[C@H]3[C@@H]1CO[C@@H]3c1ccc3c(c1)OCO3)OCO2	-4%	-17%
O=C(NCC(c1cccs1)N1CCOCC1)c1cc([N+](=O)[O-])cc([N+](=O)[O-])c1 (configuration not stated)	i	-24%
CC(NC(=O)c1ccccc1NC(=O)c1nsc2ccccc12)c1ccccc1 (configuration not stated)	-12%	-14%
O=[N+]([O-])c1ccc(CSc2nc3ccccc3[nH]2)cc1	i	-4%
CCC(C)(C)C1CCc2[nH]nc(C(=O)O)c2C1 (configuration not stated)	-10%	-4%
COC(=O)c1cn(S(=O)(=O)c2ccccc2)c2ccccc12	?	-15%
O=C(CSc1nc2nn(-c3ccccc3)c(=O)c-2c2n1CCCCC2)Nc1ccc(OC(F)F)cc1	-27%	-29%
O=C(CSC1CC(=O)N(CCc2ccccc2)C1=O)Nc1ccc(Br)cc1 (configuration not stated)	-26%	-8%
COCCCNC(=O)C[C@@H]1C[C@@]2(C(=O)OC)CCCCC=C2N(Cc2ccc(Cl)cc2Cl)C1=O	14%	-1%
COc1ccccc1N=C1SC(C(=O)Nc2ccccc2OC)CC(=O)N1C (configuration not stated)	-15%	-16%
Cc1ccc(-c2nnc(Nc3cccc(Cl)c3)c3ccccc23)cc1S(=O)(=O)N1CCCCC1	-12%	-19%
O=C(CSc1nnc(COc2ccc(Cl)cc2)o1)NC1CCCCC1	-12%	-9%
CC(C)c1nn2c(=O)cc(COC(=O)c3ccccc3NC(=O)c3cccc(Cl)c3)nc2s1	i	-21%
COc1cccc(OC)c1C(=O)Nc1ccccc1C(=O)N1CCCC1	i	-5%
Fc1ccc(CNC(=S)Nc2ccc(Cl)cc2Cl)cc1	-11%	-22%
C=C1C(=O)CC2=C1[C@](Cc1ccc(F)cc1)(C(=O)OC)N(C(=O)c1ccccc1)C2	-3%	-4%
CCOC(=O)C(=Cc1ccccc1)C(=O)c1ccccc1	i	8%
OC[C@@H]1CN(Cc2ccncc2)C[C@H](n2cnc3c(NCc4ccncc4)ncnc32)O1	0%	-2%
Cc1c(C(=O)NCc2ccco2)oc2ccc(S(=O)(=O)N3CCC4(CC3)OCCO4)cc12	-27%	-21%
Cc1noc(C)c1C(=O)Nc1ccccc1C(=O)NCCc1ccccc1	-18%	-4%
CCCCn1c(N)c(N(CCOC)C(=O)COC(=O)CSc2cc(C)c3ccccc3n2)c(=O)[nH]c1=O	-23%	-7%
O=C(c1ccc(N2CCN(C3CC(=O)N(Cc4cccs4)C3=O)CC2)cc1)c1cccnc1 (configuration not stated)	-3%	-20%
CSCCC(NS(=O)(=O)c1cccs1)C(=O)NCc1ccccc1 (configuration not stated)	-7%	1%
Cc1ccc(OCCn2cc(/C=N/NC(=O)c3ccncc3)c3ccccc32)cc1	-7%	-23%
COc1ccccc1CCNC(=O)c1ccc2c(c1)c(C)c(C)n2C	3%	1%
Cn1ccc2c(N3CCCCCCC3)cc3c(c21)C1CCC3O1 (configuration not stated)	82%[activator]	21%
